Bioassay records as filed in PubChem BioAssay.
TRPV1 PAM = human TRPV1 potentiation | TRPV1-expressing cells, Fluo-8 calcium influx, capsaicin EC20 potentiation; host cell line not named in the record; control for the full effect not named in the record | 320,000 compounds, 0.02% hits | Q8NER1 | potentiation, % at 8.33 µM; active means potentiation above 80%; inconclusive means 30% to 80%; inactive means below 30%; note: 0% is about no effect
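Fluo-8 calcium influx in TRPV1-expressing cells, kinetic read (ex 480/em 520 nm). Compound added and read 3 min for agonist activity, followed by capsaicin at EC20 final and 2 min further read for enhancement.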
TRPML1 agonist = agonists of human TRPML1 channel | AID 624414 | activation, % (test concentration not listed) | TRPML1-expressing cells, Ca2+ dye fluorescence, FDSS; host cell line not named in the record; reference of the full effect not given here | 410,000 compounds, 0.12% hits | Q9GZU1; in the data active = activation above about 50%; inconclusive = about 30% to 50%; inactive = below about 30%; note: 0% is about no effect; the text of the record puts the active cut at 80%
Target sequence (Q9GZU1 whole entry, looked up): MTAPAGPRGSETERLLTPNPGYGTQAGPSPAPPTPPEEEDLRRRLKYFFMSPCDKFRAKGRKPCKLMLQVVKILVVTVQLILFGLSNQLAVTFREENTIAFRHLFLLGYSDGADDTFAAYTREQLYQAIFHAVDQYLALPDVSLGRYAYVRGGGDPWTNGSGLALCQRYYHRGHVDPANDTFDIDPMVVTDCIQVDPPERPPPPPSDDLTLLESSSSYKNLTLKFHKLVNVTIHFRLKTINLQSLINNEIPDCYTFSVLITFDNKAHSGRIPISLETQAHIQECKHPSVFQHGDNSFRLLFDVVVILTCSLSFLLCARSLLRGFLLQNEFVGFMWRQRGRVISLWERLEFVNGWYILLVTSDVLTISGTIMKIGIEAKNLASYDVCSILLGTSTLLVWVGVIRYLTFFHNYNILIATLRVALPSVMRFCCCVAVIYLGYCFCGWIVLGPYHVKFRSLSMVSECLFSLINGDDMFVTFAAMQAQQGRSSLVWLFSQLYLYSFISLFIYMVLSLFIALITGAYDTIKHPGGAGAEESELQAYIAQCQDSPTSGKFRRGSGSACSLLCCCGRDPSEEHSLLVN
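TRPML1-DL cells, Tet-induced overnight (~16 h, 37 degrees C), loaded 45-90 min at room temperature with Ca8 no-wash calcium dye plus quencher. FDSS fluorescence: 10 s baseline, compound pin-transfer, 110 s agonist read, then EC80 54-4 (4uM final) and 110 s antagonist read.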
D2 potentiator = positive allosteric modulators of human D2 dopamine receptor; AID 624464; DiscoveRx D2 beta-arrestin cells, luminescence, 90 min; 100% = 57 uM dopamine signal; P14416; 360,000 compounds, 0.23% hits; potentiation, % (test concentration not listed); active = potentiation of 50% or more; inconclusive = 30% to 50%; inactive = 30% or less;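 note: compound concentration not given in the record; tested on top of an EC20 dose of dopamine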
Target sequence (P14416 whole entry, looked up): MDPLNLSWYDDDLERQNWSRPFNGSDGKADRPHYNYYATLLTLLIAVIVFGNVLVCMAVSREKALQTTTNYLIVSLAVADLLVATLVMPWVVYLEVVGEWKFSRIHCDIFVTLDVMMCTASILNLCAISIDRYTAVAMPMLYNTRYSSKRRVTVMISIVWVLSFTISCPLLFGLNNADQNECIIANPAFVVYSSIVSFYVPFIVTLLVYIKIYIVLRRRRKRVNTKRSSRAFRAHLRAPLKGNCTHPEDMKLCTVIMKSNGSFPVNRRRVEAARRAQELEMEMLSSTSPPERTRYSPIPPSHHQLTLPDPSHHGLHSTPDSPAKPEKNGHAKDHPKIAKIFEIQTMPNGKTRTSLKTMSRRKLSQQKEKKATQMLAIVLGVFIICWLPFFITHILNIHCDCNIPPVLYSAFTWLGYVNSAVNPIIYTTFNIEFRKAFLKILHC
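PathHunter beta-arrestin assay in DiscoveRx D2 cells. Compounds were added with an EC20 of dopamine (50 nM final) for 90 min at 37 deg C. Luminescence was read 1 h after detection reagent, with 57 uM dopamine as the EC100 control.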
Six1-Eya2 blk = blocks human Six1 binding to Eya2; Q15475+O00167; AlphaScreen GST-Six1/His-Eya2 binding, biochemical; active compounds read low; control for the full effect not named in the record; activity change, % (no concentration beside the values); 360,000 compounds, 0.56% hits; AID 651725; in the data active = activity change below about -65%; inconclusive = about -30% to -65%; inactive = above about -30%; note: % is set by controls: 0 for no effect and ±100 for the full control effect
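Six1/Eya2 binding was read as AlphaScreen signal after compounds were pinned into GST-Six1 plus His-tagged Eya2 (5X stock 250/500 nM) in pH 8.0 Tris/NaCl/TCEP buffer, beads added, then incubated 1 h, 37 C, dark.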
CtBP-E1A inh = inhibitors of CtBP/E1A interaction | activity change, % (test concentration not listed) | AID 651724 | 340,000 compounds, 0.49% hits | AlphaScreen GST-E1A/His-CtBP binding, 1536-well; active compounds read low; control for the full effect not named in the record; in the data active means activity change below about -65%; inconclusive means about -30% to -65%; inactive means above about -30%; note: % is set by controls: 0 for no effect and ±100 for the full control effect
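Homogeneous bead-based format: GST-tagged E1A captured on glutathione donor beads, His-tagged CtBP on nickel acceptor beads; compounds precede bead addition by 2 h at 37 °C.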
TRPML1 inh = inhibitors of human TRPML1 channel; 390,000 compounds, 0.02% hits; AID 624415; activity change, negative = inhibition, % (test concentration not listed); Q9GZU1; TRPML1-inducible cells, Ca2+ dye fluorescence, FDSS; active compounds read low; inhibition of EC80 agonist-evoked calcium signal; in the data active means activity change below about -50%; inconclusive means about -30% to -50%; inactive means above about -30%;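 note: stimulus is agonist 54-4 at its EC80 concentration; % is set by controls: 0 for no effect and ±100 for the full control effect; compound concentration not given in the record; the text of the record puts the active cut at -80%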
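Calcium fluorescence in TRPML1-DL cells induced overnight with Tet: a 110 s read after compound pin addition, then a 110 s antagonist read after challenge with 54-4 at 4 uM final (EC80).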
An asterisk follows results filed as active; ? = inconclusive; nt = not tested or not shown; & = joins results of further samples.

SMILES	TRPV1 PAM	TRPML1 agonist	D2 potentiator	Six1-Eya2 blk	CtBP-E1A inh	TRPML1 inh
O=C(Nc1ccccc1)N(O)c1ccc(Cl)cc1	8	-0.1	-14	-11	0	-2
Cc1cc(C)c(C#N)c(SCC(=O)OC2CCCCC2)n1	4	8.1	-4	31	34	15
Cc1cccc2sc(NC(=O)[C@H](C)N3C(=O)C4CC=CCC4C3=O)nc12 (some centres not stated)	nt	-0.2	-2	6	2	-3
C/C(CC(=O)NC1CCCCC1)=N\NC(=O)COc1ccc(C)cc1Br	24	1.4	-14	-1	-1	16
C=CCn1c(CNC(=O)c2ccco2)nnc1SCC(=O)Nc1cccc(F)c1	-13	-0.5	-12	17	0	-3
CN1CCC(N(C)C(=O)CCc2nc3ccccc3n2-c2ccccc2)CC1	-27	-1.4	2	3	-2	-7
CCCN1CCC(NC(=O)Nc2cc(Cl)ccc2OC)CC1	2	1.6	4	-1	5	26
COc1ccc(C2c3sc(=O)[nH]c3SCC2C(N)=O)cc1 (configuration not stated)	3	nt	-5	1	-8	nt
C=CCNC(=O)c1ccccc1CCc1ccccc1	22	0.6	-5	17	3	-28
Cc1noc(C)c1S(=O)(=O)Nc1ccccc1Oc1ccccc1	2	0.5	-9	7	11	-3
COc1cccc(N(C(=O)CNC(=O)c2ccco2)C(C(=O)NC2CCCC2)c2ccncc2)c1 (configuration not stated)	-2	-0.5	-2	6	13	-2
O=C(COc1ccccc1)Nc1nc2ccccc2[nH]1	8	-0.9	-14	-5	7	6
CCOC(=O)C1CCN(C(=O)Nc2ccc(Cl)cc2)CC1	-21	-0.5	5	9	9	3
O=C(c1ccc(Br)s1)N1CCN(c2ncccn2)CC1	-17	0.6	6	2	13	-2
O=C(CN1CCCCCC1)Nc1ccccc1Oc1ccccc1	-25	2.2	-11	10	5	-1
Nc1nonc1-n1nnc(C(=O)N/N=C/C2CC=CCC2)c1CSc1ccccc1 (configuration not stated)	-10	-0.1	-5	0	2	1
CCOC(=O)C1CCN(C(=S)NC(=O)c2cccs2)CC1	2	0.3	-13	-3	1	-6
O=C(COC(=O)/C=C/c1ccccc1F)Nc1nnc(-c2ccccc2)o1	21	0.7	12	-28	?	4
O=C(NCc1ccccn1)C1CCCCC1	-3	0.2	9	0	-16	-7
Cn1c(Cn2nnc3ccccc32)nnc1SCC(=O)N1c2ccccc2CCc2ccccc21	3	0.8	-7	-10	-7	-13
CN(C(=O)COc1ccccc1)c1nc(-c2ccc(F)cc2)cs1	4	1.0	-2	6	4	11
Cn1c(=O)c(C(=O)CCl)c(N)n(Cc2ccccc2)c1=O	15	-0.3	-10	5	0	0
O=C1C2CCCN2C(=O)N1CCCCN1CCN(CCO)CC1 (configuration not stated)	7	-0.1	-6	4	2	4
CCN(C(=O)COC(=O)c1cc(=O)[nH]c2ccccc12)c1c(N)n(Cc2ccccc2)c(=O)[nH]c1=O	nt	-0.1	-4	1	12	5
CN1C(=O)NC(c2ccccc2)C2=C1CN(CCc1ccccc1)C2=O (configuration not stated)	2	-0.7	2	-1	10	-1
Cc1cc(S(=O)(=O)N2CCOCC2)ccc1OCC(=O)N1CCCC1	2	-0.4	15	0	-8	-4
COc1c(OC(C)=O)ccc(/C=C/c2ccc3cccc(OCc4ccccc4)c3n2)c1[N+](=O)[O-]	1	-0.5	-23	?	-20	-10
Cc1cccc(N(CC(=O)NCc2ccccc2)C(=O)Cn2nnc(-c3ccc(C)o3)n2)c1	-1	2.8	-7	-1	-1	23
Cc1c(NC(=O)c2cc(-c3ccc(Br)cc3)on2)c(=O)n(-c2ccccc2)n1C	12	-1.3&-1.1	-9	5	18	-7&3
CCOc1ccc(C(=O)N(CC)CC(=O)Nc2ccc3c(c2)OCCO3)cc1	0	-1.0	11	-1	nt	8
COc1ccc(-c2cccc(NC(=O)COc3ccc(Cl)cc3)c2)nn1	-9	0.4	-25	-6	?	-7
COc1ccc(CNC(=O)CN2C(=O)NC3(CCCCCCC3)C2=O)cc1	nt	-0.3	-19	0	-4	-9
CC(C)COC(=O)C(C#N)c1nc2ccccc2nc1N1CCN(Cc2ccccc2)CC1 (configuration not stated)	-2	0.5	-18	-2	-2	36
Cc1ccc(C(=O)N2CCCC(CCC(=O)NCc3ccc(F)c(F)c3)C2)cn1 (configuration not stated)	11	-1.0	0	7	2	-9
COCCn1c(N)c(C(=O)OCc2ccccc2)c2nc3ccccc3nc21	-6	0.0	-16	1	-4	18
CCOC(=O)C1CCN(C(c2cccnc2)c2c(NC(=O)c3ccco3)sc(C)c2C)CC1 (configuration not stated)	1	0.6	-15	-15	-7	-16
CCOc1ccccc1NC(=O)CSc1nc(=O)n(Cc2ccncc2)c2c1CCC2	-14	-0.1	4	2	1	0
O=C(COC(=O)c1ccc(F)cc1)Nc1cc(S(=O)(=O)N2CCOCC2)ccc1N1CCCC1	12	0.9	-3	-3	-9	-2
O=C(CC(O)(c1ccccc1)C(F)(F)C(F)F)c1cccs1 (configuration not stated)	5	1.1	-3	6	8	-5
c1ccc(-c2ncc3ccccn23)cc1	-3	0.1	-5	-1	0	-1
CC1(C)OC(=O)C(=NNc2ccc(Cl)cc2)C(=O)O1	-31	-0.8	-4	4	5	17
COc1ccccc1NC(=O)Nc1nn(C)c2cccc(OC)c12	7	0.6	-3	3	8	-1
Cc1sc2nc(C)n(/N=C/c3ccccc3)c(=O)c2c1C	-12	0.0	-3	1	0	-27
CN(C(=O)COC(=O)c1cc(Br)c(Br)s1)C1CCS(=O)(=O)C1 (configuration not stated)	-10	-0.1	-9	10	13	30
Cc1cc(=O)oc2c3c(cc(OCC(=O)N4CCC[C@H]4C(=O)O)c12)OC(C)(C)CC3	15	nt	-20	-71*	?	nt

Nothing new here: an excerpt of the list.
SMILES	TRPV1 PAM	TRPML1 agonist	D2 potentiator	Six1-Eya2 blk	CtBP-E1A inh	TRPML1 inh
CN(C(=O)COC(=O)c1cc(Br)c(Br)s1)C1CCS(=O)(=O)C1 (configuration not stated)	-10	-0.1	-9	10	13	30
Cc1cc(=O)oc2c3c(cc(OCC(=O)N4CCC[C@H]4C(=O)O)c12)OC(C)(C)CC3	15	nt	-20	-71*	?	nt

Carrying on.
SMILES	TRPV1 PAM	TRPML1 agonist	D2 potentiator	Six1-Eya2 blk	CtBP-E1A inh	TRPML1 inh
O=C(Cc1coc2ccc3ccccc3c12)NCc1cccs1	-3	1.7	-10	0	3	4
COc1cc(CNCc2ccccc2)cc(Cl)c1OC	5	0.8	-33	5	-2	20
COC(=O)c1ccc(N2CCOCC2)c(NC(=O)c2cccnc2)c1	-2	0.1	9	3	1	-9
Cc1ccc(C2=NS(=O)(=O)N(C)C(C(=O)NCc3ccccc3)=C2)cc1	-7	-0.8	-5	-12	-4	23
CN(C)c1ccc(/C=N/NC(=O)c2ccccc2O)o1	1	-0.6	-2	-19	-12	2
O=C(NCC1CCCO1)C1CCCCN1S(=O)(=O)c1ccc(F)cc1 (configuration not stated)	-4	-0.8	-9	5	2	1
CCCC(=O)N1CCC1(C)C(=O)NS(=O)(=O)c1cccc(F)c1 (configuration not stated)	nt	-0.3	-8	13	-6	nt
O=C(NCc1cccnc1)c1cc(S(=O)(=O)N2CCCC2)c(Cl)cc1Cl	4	-0.5	-9	0	0	12
O=C1CCCCc2cc(O)c(O)cc21	nt	-0.4	-1	0	5	1
COCCNc1nnc(SC(C)C(=O)Nc2c(C)n(C)n(-c3ccccc3)c2=O)s1 (configuration not stated)	2	0.2	16	6	0	-23
CC(=O)NCCc1c(C)n(Cc2ccccc2)c2ccccc12	-9	-0.2	0	-5	1	-3
O=C(Cc1ccccc1)Nc1sc2c(c1C(=O)Nc1ccc(Cl)cc1)CCCC2	-14	4.4	nt	nt	nt	71
COc1cc(C(=O)Oc2c(OC)cc(C(=S)N3CCOCC3)cc2OC)cc(OC)c1OC	-3	2.0	8	-7	-2	18
COc1cc(OC)cc(C(=O)NCc2n[nH]c(=S)n2-c2ccccc2OC)c1	7	0.4	-1	1	5	11
CC(C)(C)C(=O)/C=c1\[nH]c(=O)/c(=C\c2ccc(C#N)cc2)s1	?	6.0	-8	-12	-10	24

Whole records, quoted from the list. Order of values: TRPV1 PAM | TRPML1 agonist | D2 potentiator | Six1-Eya2 blk | CtBP-E1A inh | TRPML1 inh
C=CCNC(=O)c1ccccc1CCc1ccccc1 is listed as 22 | 0.6 | -5 | 17 | 3 | -28
O=C1CCCCc2cc(O)c(O)cc21 is listed as nt | -0.4 | -1 | 0 | 5 | 1
C/C(CC(=O)NC1CCCCC1)=N\NC(=O)COc1ccc(C)cc1Br is listed as 24 | 1.4 | -14 | -1 | -1 | 16
O=C(c1ccc(Br)s1)N1CCN(c2ncccn2)CC1 is listed as -17 | 0.6 | 6 | 2 | 13 | -2
O=C(Nc1ccccc1)N(O)c1ccc(Cl)cc1 is listed as 8 | -0.1 | -14 | -11 | 0 | -2

Remaining list, next part:
SMILES	TRPV1 PAM	TRPML1 agonist	D2 potentiator	Six1-Eya2 blk	CtBP-E1A inh	TRPML1 inh
COc1cc(OC)cc(C(=O)N2CCN(C(=O)c3ccc(-c4ccccc4)cc3)CC2)c1	3	3.7	-2	-9	-14	24
Cc1cc(=O)[nH]c2ccc(S(=O)(=O)Nc3ccccc3)cc12	27	0.1	1	6	-5	19
COc1ccc(/C=N/NC(=O)C2c3ccccc3-c3ccccc32)cc1	0	-0.7	-3	4	13	-3
COc1ccc(CN2C[C@@H](CO)O[C@@H](n3cnc4c(N5CCN(C)CC5)ncnc43)C2)cc1	nt	0.1	-4	5	-23	nt
CCOc1ccc2oc(C(=O)N3CCN(c4ccccn4)CC3)c(C)c2c1	15	0.5	-15	-6	-1	3
CN(C)C(=O)c1cc(C(=O)c2ccccc2Cl)c[nH]1	7	0.0	0	17	0	-13
CCn1c(=O)c(C(=O)NNC(=O)c2ccccc2Br)c(O)c2ccccc21	-4	9.9	-9	?	?	26
CCN1C[C@@H]2[C@@H]3C(=O)N(Cc4ccccc4)C(=O)[C@@H]3[C@](C)(C(=O)OC)N2C1=NC1CCCCC1	nt	0.9	-6	11	5	-18
O=C(CCN1C(=O)/C(=C\c2ccccc2F)SC1=S)N1CCOCC1	nt	-0.5	-22	2	-10	52
O=C(Cc1ccc(Br)cc1)NC1CCN(Cc2ccccc2)CC1	-13	0.3	-15	-4	0	21
CC1CCCC(NC(=O)c2cc(S(=O)(=O)N3CCOCC3)ccc2F)C1C (configuration not stated)	-28	0.9	-12	4	-9	-10
COc1sc(SC)cc1/C=N/NC(=O)c1ccncc1	0	0.6	-15	-6	-10	20
CN(C)CCCNC(=O)c1cc(C(=O)Cc2ccccc2)c[nH]1	-2	0.4	-12	10	nt	20
CCCNC(=O)NC(=O)COC(=O)c1ccc(S(=O)(=O)N(C)c2ccccc2OC)cc1	-27	-1.4	-3	0	2	32
CCN(c1ccccc1)S(=O)(=O)c1ccc(Cl)c(NC(=O)CNCc2ccccc2OC)c1	nt	0.3	-32	1	1	25
O=S(=O)(c1ccccc1)c1ncc(C(F)(F)F)cc1O	14	-0.2	-1	0	3	-3
CCCn1c(C(C)NC(=O)c2ccccc2)n[nH]c1=S (configuration not stated)	?	-0.3	-5	17	11	-3

Six1-Eya2 blk, hit marks shown above.
| Compound | D2 potentiator | Six1-Eya2 blk | CtBP-E1A inh | TRPML1 inh |
| --- | --- | --- | --- | --- |
| Cc1cc(=O)oc2c3c(cc(OCC(=O)N4CCC[C@H]4C(=O)O)c12)OC(C)(C)CC3 | -20 | -71* | ? | nt |
